Lassa entry inh – qHTS for Inhibitors of binding or entry into cells for Lassa Virus; Lassa virus pseudotype entry inhibition, cell reporter; control for the full effect not named in the record; Potency, µM (highest dose often 37.9 µM), for the others: at the top dose activity change, negative = inhibition, most hits filed as inhibitors; 300,000 compounds, 1.2% hits; active means well fitted inhibition curve with a large enough effect; inconclusive means small, poorly fitted or top-dose-only effect, or effect the other way; inactive means flat fitted curve, though single readings scatter; tested in HEK293 cells; also: % is scaled to controls: 0 for no effect and ±100 for the full control effect; nearly all actives have a fitted effect of over 50% in size; luciferase read-out
SARS PLpro yeast – qHTS of Yeast-based Assay for SARS-CoV PLP; 330,000 compounds, 0.19% hits; S. cerevisiae expressing SARS-CoV PLpro, growth rescue; control for the full effect not named in the record; Potency, µM (titrated, usually from 32.9 µM), without a hit: at the highest dose activity, positive = growth rescue; also: 0% is about no effect; nearly all actives have a fitted effect of over 55% in size; growth read by luminescence after 48 h
NS1 function inh – qHTS Assay for Inhibitors of Influenza NS1 Protein Function. S. cerevisiae slowed by influenza A NS1, growth recovery by OD600. Potency, µM (doses to about 46.1 µM), for the others: at the highest dose activity, positive = more growth. 270,000 compounds, 0.4% hits. AID 2326, 2010; also: actives are rising curves; nearly all actives have a fitted effect of over 50% in size
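Recovery from NS1-induced slow growth read by OD600 in budding yeast switched to galactose assay medium (pH 6.0, -URA) at 1:100 dilution. Compound 23 nl per well; the matching strain lacking NS1 serves as control.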
Cruzain Triton – qHTS Assay for Promiscuous and Specific Inhibitors of Cruzain (with detergent) | 200,000 compounds, 0.43% hits | Potency, µM, for inactives: max response, negative = inhibition, usual class: inhibitors | AID 1478, 2009 | purified cruzain, Z-FR-AMC fluorescence, 0.01% Triton | Cruzipain (Trypanosoma cruzi), P25779; active = well fitted curve in the direction sought with a large enough effect; inconclusive = small, poorly fitted or top-dose-only effect, or another doubt; inactive = no such curve, though single readings can be large; an effect the other way counts as inactive or inconclusive;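 also: plate controls were neutral wells for no effect and buffer without enzyme for full effect; nearly all actives have a fitted effect of over 40% in size; top concentration of the series not given in the record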
Target sequence (P25779 123-467 limits assumed): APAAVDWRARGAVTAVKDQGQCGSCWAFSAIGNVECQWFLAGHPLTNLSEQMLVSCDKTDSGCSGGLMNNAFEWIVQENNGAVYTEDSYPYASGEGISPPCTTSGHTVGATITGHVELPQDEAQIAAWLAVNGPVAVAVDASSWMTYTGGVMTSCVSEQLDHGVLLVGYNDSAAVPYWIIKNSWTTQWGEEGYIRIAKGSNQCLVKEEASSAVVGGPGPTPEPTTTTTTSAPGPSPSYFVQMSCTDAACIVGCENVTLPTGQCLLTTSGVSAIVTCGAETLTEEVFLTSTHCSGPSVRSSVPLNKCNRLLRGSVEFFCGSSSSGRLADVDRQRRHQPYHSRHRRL
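15 min RT preincubation of 1.5 nM cruzain with compound, then 2 uM Z-FR-AMC added; kinetic AMC fluorescence, 60 s delta. Triton X-100 0.01%, pH 5.5.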
Cruzain inh noDet – qHTS Assay for Promiscuous and Specific Inhibitors of Cruzain (without detergent) | AID 1476, 2009 | Cruzipain (Trypanosoma cruzi), P25779 | 200,000 compounds, 2.3% hits | Potency, µM, for the others: max response, negative = inhibition, actives largely listed as inhibitors | purified cruzain, Z-FR-AMC fluorescence, no detergent; active = well fitted curve in the direction sought with a large enough effect; inconclusive = small, poorly fitted or top-dose-only effect, or another doubt; inactive = no such curve, though single readings can be large; an effect the other way counts as inactive or inconclusive;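 also: plate controls were enzyme without inhibitor for no effect and buffer without enzyme for full effect; nearly all actives have a fitted effect of over 40% in size; top concentration of the series not given in the record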
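Purified cruzain at 1.5 nM, pre-incubated 15 min with compound at room temperature in 100 mM sodium acetate pH 5.5, 5 mM DTT, 0.00005% Triton X-100. Reaction started with 2 uM Z-FR-AMC; AMC fluorescence increase over 60 s gives rate.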
Marburg entry inh – qHTS for inhibitors of binding or entry into cells for Marburg Virus; Marburg virus pseudotyped entry inhibition, cell reporter; control for the full effect not named in the record; about a third of the inactives were read at about 46 µM; Potency, µM (top dose mostly 37.8 µM), without a hit: at the highest dose activity change, negative = inhibition, usual class: inhibitors; 300,000 compounds, 1.8% hits; AID 540276, 2011; active = well fitted inhibition curve with a large enough effect; inconclusive = small, poorly fitted or top-dose-only effect, or effect the other way; inactive = flat fitted curve, though single readings scatter; tested in HEK293 cells; about a fifth of its hits are not listed in these tables; also: % is scaled to controls: 0 for no effect and ±100 for the full control effect; luciferase read-out
RE007 growth inh – qHTS Assay for Inhibitors of the HIV-1 protein Vpr. S. pombe RE007 Vpr strain, BacTiter-Glo ATP luminescence, 24 h; control for the full effect not named in the record. Potency, µM (top dose mostly 92.2 µM), for the others: top-dose activity change, negative = less growth. 360,000 compounds, 0.21% hits; active = well fitted falling curve with a large enough effect; inconclusive = small, poorly fitted or top-dose-only effect; inactive = no such curve, though single readings can be large or run the other way;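 also: % is scaled to controls: 0 for no effect and ±100 for the full control effect; nearly all actives have a fitted effect of over 50% in size; the assay follows cell death caused by Vpr and the record does not say whether a fall means rescue or toxicity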
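Fission yeast strain RE007, carrying one chromosomally integrated HIV-1 vpr copy, was seeded at OD 0.01 in PMG+AL medium with 23 nL pinned compound. After 24 h at 30 °C and 99% humidity, viability was read by BacTiter-Glo luminescence.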
StopGo reporter – High Throughput Screening for Foot and Mouth Disease Virus Antivirals. AID 1159524, 2015. human cells with a luciferase reporter of 2A StopGo recoding; control for the full effect not named in the record. Potency, µM (highest dose often 57.9 µM), without a hit: at the top dose signal change, negative = less light. 410,000 compounds, 1.2% hits; active = well fitted falling curve with a large enough effect; inconclusive = small, poorly fitted or top-dose-only effect; inactive = no such curve, though single readings can be large or run the other way; tested in HEK293T cells; also: % is scaled to controls: 0 for no effect and ±100 for the full control effect; nearly all actives have a fitted effect of over 45% in size; luciferase light after 4 h
* marks the source's active call; other numbers are inactive results; & = joins results of further samples; [ ] = dose if it differs, or a comment. Unless noted, calls follow the shape of the dose curve; as a rule, active means well fitted rising curve with a large enough effect; inconclusive means small, poorly fitted or top-dose-only effect; inactive means no such curve, though single readings can be large or run the other way. Potency is read from the fitted curve at half-maximal effect.

Screening COc1cccc(NC(=O)[C@H](NC(=O)[C@@H]2Cc3ccccc3CN2)c2ccccc2)c1 returned SARS PLpro yeast -5%, NS1 function inh 14%, RE007 growth inh 5% and StopGo reporter 11%.
`Cc1cccc2c(=O)cc(C(F)(F)F)[nH]c12` gave Lassa entry inh -3%[46.1 µM], SARS PLpro yeast -7%, NS1 function inh -91%, Marburg entry inh 0%[46.1 µM], RE007 growth inh -16% and StopGo reporter inconclusive.
For Cc1cc(C)c(NC(=O)CSc2nnnn2-c2cccnc2)c(C)c1 the results were Lassa entry inh -2%[46.1 µM], SARS PLpro yeast -6%, NS1 function inh 13%, Marburg entry inh -2%[46.1 µM], RE007 growth inh -9% and StopGo reporter -7%.
`CC1Cc2ccccc2N1C(=O)CSc1nncs1` (configuration not stated) gave Lassa entry inh 0%, SARS PLpro yeast 4%, Marburg entry inh inconclusive, RE007 growth inh 9% and StopGo reporter -6%.
O=C(CCN1C(=O)C2C3C=CC(C3)C2C1=O)Oc1ccc2ccccc2c1 (configuration not stated) was read as SARS PLpro yeast 0%, NS1 function inh -38%, RE007 growth inh -6% and StopGo reporter -1%.
Cc1ccc(C(=O)N2CCN(C34CC5CC(CC(C5)C3)C4)CC2)o1 was read as SARS PLpro yeast -9%, NS1 function inh 2%, RE007 growth inh -11% and StopGo reporter 17%.
CC(=O)c1ccc(N2CCN(c3ccc4cc(S(=O)(=O)N5CCC(C)CC5)ccc4n3)CC2)cc1 was read as Lassa entry inh 14%&-11%[46.1 µM], SARS PLpro yeast -4%, NS1 function inh 5%, Cruzain Triton 4.5%, Cruzain inh noDet -11%, Marburg entry inh 20%&20%[46.1 µM], RE007 growth inh 19% and StopGo reporter -14%&-27%.
`O=C(Cn1c(=O)n(-c2ccccc2)c(=O)c2c3c(sc21)CCC3)c1ccc(Br)cc1` gave Lassa entry inh 7%[46.1 µM], Cruzain Triton -3.9%, Cruzain inh noDet -7%, Marburg entry inh inconclusive and StopGo reporter 0%.
For CC1CC(NC(=O)C2(C)CC2(Cl)Cl)CC(C)(C)C1 (configuration not stated) the results were Lassa entry inh 9%, SARS PLpro yeast -1%, NS1 function inh -8%, Cruzain Triton 5.0%, Cruzain inh noDet -1%, Marburg entry inh -13%, RE007 growth inh 7% and StopGo reporter -15%.
`COCCn1c(=NC(=O)c2ccco2)sc2cc(C(=O)OC)ccc21` gave Lassa entry inh inconclusive, SARS PLpro yeast -8%, NS1 function inh -6%, Cruzain Triton -6.1%, Cruzain inh noDet 3%, Marburg entry inh inconclusive, RE007 growth inh -3% and StopGo reporter 2%.
`CC(=O)Nc1ccc(NS(=O)(=O)c2ccc(C)cc2)cc1[N+](=O)[O-]` gave Lassa entry inh inconclusive, SARS PLpro yeast 0%, NS1 function inh 0%, Marburg entry inh 0%[14.2 µM], RE007 growth inh 4% and StopGo reporter 11%.
O=C(O)CC(NC(=O)C12CC3CC(CC(C3)C1)C2)c1ccc2c(c1)OCO2 (configuration not stated) was read as Lassa entry inh inconclusive, SARS PLpro yeast 5%, Marburg entry inh 1%[46.1 µM], RE007 growth inh 1% and StopGo reporter -6%.
For CCCCCCCn1c(C)nnc1-c1cnn(C)c1N the results were Lassa entry inh -7%[46.1 µM], SARS PLpro yeast 1%, Marburg entry inh 30%[46.1 µM], RE007 growth inh 1% and StopGo reporter -3%.
Screening Cc1ccc(/C=C2\SC(=S)N(C3CCS(=O)(=O)C3)C2=O)o1 (configuration not stated) returned Lassa entry inh -18%, SARS PLpro yeast -2%, NS1 function inh 9%, Marburg entry inh -21%, RE007 growth inh 6% and StopGo reporter inconclusive.
For COc1ccc(NC(=O)CC2Nc3ccccc3NC2=O)cc1 (configuration not stated) the results were Lassa entry inh 9%[46.1 µM], Cruzain Triton -2.8%, Cruzain inh noDet -5% and StopGo reporter 15%.
`COc1nc(N/N=C/c2ccc(-c3ccccc3[N+](=O)[O-])o2)nc(N2CCOCC2)n1` gave Lassa entry inh 1%, SARS PLpro yeast 9%, NS1 function inh 9%, Cruzain Triton -12%, Cruzain inh noDet 14%, Marburg entry inh inconclusive and StopGo reporter -11%.
`CCc1nnc(NS(=O)(=O)c2ccc(NCc3cc(Cl)ccc3O)cc2)s1` gave Lassa entry inh 4%[46.1 µM], SARS PLpro yeast 2%, NS1 function inh 8%, Marburg entry inh 12%[46.1 µM], RE007 growth inh 8% and StopGo reporter -14%.
OCC1(Cc2cccc(Cl)c2)CCCN(Cc2cnn(-c3ccccc3)c2)C1 (configuration not stated) was read as SARS PLpro yeast 0%, NS1 function inh 3%, RE007 growth inh -2% and StopGo reporter -25%.
For O=C(OCc1ccc([N+](=O)[O-])cc1)c1cc(=O)c2ccccc2o1 the results were Lassa entry inh 6%, SARS PLpro yeast 2%, NS1 function inh 6%, Marburg entry inh 12%[46.1 µM], RE007 growth inh -16% and StopGo reporter -17%.
Screening CCCCc1ccc(NC(=O)CSC2=C(C#N)C(c3ccco3)C3=C(CCCC3=O)N2)cc1 (configuration not stated) returned Lassa entry inh inconclusive, SARS PLpro yeast 1%, NS1 function inh 20µM*, Cruzain Triton -15%, Cruzain inh noDet -13%, Marburg entry inh inconclusive, RE007 growth inh 0% and StopGo reporter inconclusive.
Screening Cc1cc(C)cc(-n2c(C)cc(/C=N\NC(=O)COc3cccc4cccnc34)c2C)c1 returned SARS PLpro yeast 13%, NS1 function inh 15%, Cruzain Triton -7.0%, Cruzain inh noDet inconclusive, Marburg entry inh -3%, RE007 growth inh 48% and StopGo reporter -6%.
O=C1Nc2ccc(Br)cc2C1=C1CCCCC1 was read as Lassa entry inh inconclusive, SARS PLpro yeast -1%, NS1 function inh -10%, Marburg entry inh inconclusive, RE007 growth inh -6% and StopGo reporter -15%.
Screening CCOc1ccc(C(=O)Nc2ccc3oc(-c4ccc(C)cc4C)nc3c2)cc1Br returned Lassa entry inh 25%[46.1 µM], Cruzain Triton -2.2%, Cruzain inh noDet -9% and StopGo reporter 0%.
CN1CC(C(=O)c2ccc(F)cc2)C(c2ccc(F)cc2)C1 (configuration not stated) was read as SARS PLpro yeast 1%, NS1 function inh -2%, RE007 growth inh -6% and StopGo reporter inconclusive.
Screening Cc1c(C)n(C)c2ccc(C(=O)NCc3cccc(F)c3)cc12 returned Lassa entry inh -26%[46.1 µM], Cruzain Triton -5.3%, Cruzain inh noDet inconclusive and StopGo reporter 20%.
CCOc1ccccc1NC(=O)c1ccc(S(=O)(=O)N(C)C)cc1 was read as Lassa entry inh -22%, SARS PLpro yeast -1%, NS1 function inh -7%, Cruzain Triton 2.7%, Cruzain inh noDet -3%, Marburg entry inh -8%, RE007 growth inh 13%[3.69 µM] and StopGo reporter inconclusive.
`O=S(=O)(c1c(Cl)cc(Br)cc1Cl)N1CCN(C(=S)NC2CC2)CC1` gave SARS PLpro yeast -11%, Marburg entry inh inconclusive, RE007 growth inh 5% and StopGo reporter -16%.
`N/C(Cc1ccc([N+](=O)[O-])cc1)=N\OC(=O)c1ccccc1F` gave SARS PLpro yeast -1%, NS1 function inh -3%, Marburg entry inh 2%[46.1 µM], RE007 growth inh -10% and StopGo reporter 0%.
COc1cc(NC(=O)CN2CCN(Cc3ccc4c(c3)OCO4)CC2)cc(OC)c1 was read as Lassa entry inh 9%, SARS PLpro yeast 10%, NS1 function inh -11%, Cruzain Triton 8.4%, Cruzain inh noDet -1%, Marburg entry inh inconclusive, RE007 growth inh -6% and StopGo reporter -11%.
For COc1ccc(CCNC(=O)c2ccc(Cl)cc2)cc1OC the results were Lassa entry inh 19%, SARS PLpro yeast 0%, NS1 function inh -7%, Marburg entry inh 2%, RE007 growth inh 1% and StopGo reporter -13%.
For COc1cc(/C=N/NC(=O)c2ccc3c(c2)OCCO3)cc(Cl)c1O the results were SARS PLpro yeast 1%, NS1 function inh 18%, RE007 growth inh 4% and StopGo reporter 35%[activator].
For Cc1cc(C(=O)Nc2ccc(S(=O)(=O)N3CCOCC3)cc2)ccc1[N+](=O)[O-] the results were SARS PLpro yeast -5%, NS1 function inh 3%, RE007 growth inh -7% and StopGo reporter -19%.
`c1ccc(-c2nnc(SCC3CCCO3)nc2-c2ccccc2)cc1` (configuration not stated) gave Lassa entry inh -24%, SARS PLpro yeast 1%, NS1 function inh 3%, Marburg entry inh -8%[46.1 µM], RE007 growth inh -5% and StopGo reporter -23%.
`C/C(=C\C(=O)c1ccc(Cl)cc1)NCc1ccc2c(c1)OCO2` gave Lassa entry inh 3%, SARS PLpro yeast -22%, NS1 function inh -4%, Cruzain Triton -5.1%, Cruzain inh noDet 2%, Marburg entry inh 3%, RE007 growth inh -3% and StopGo reporter -10%.
Screening COC(=O)c1ccccc1NC(=O)CSc1ncn[nH]1 returned Lassa entry inh 9%[46.1 µM], SARS PLpro yeast 0%, NS1 function inh 5%, Marburg entry inh 5%[46.1 µM], RE007 growth inh 9% and StopGo reporter -13%.
Screening Cc1cccc(C)c1OCC(=O)N(Cc1ccc(Cl)cc1)C1CCS(=O)(=O)C1 (configuration not stated) returned SARS PLpro yeast -3%, NS1 function inh 0%, RE007 growth inh -19% and StopGo reporter -9%.
COc1ccc(NC(=O)COC(=O)c2ccc([N+](=O)[O-])o2)cc1Cl was read as Lassa entry inh 0%[46.1 µM], SARS PLpro yeast -11%, Marburg entry inh 3%[46.1 µM], RE007 growth inh -12% and StopGo reporter 25%.
COc1ccc(/C=N/NC(=O)c2ccc(=O)[nH]n2)cc1OC was read as Lassa entry inh 18%, SARS PLpro yeast 4%, NS1 function inh 14%, Cruzain Triton -9.1%, Cruzain inh noDet -6%, Marburg entry inh 22%, RE007 growth inh 18% and StopGo reporter -7%.
CC(=O)c1cnc(Nc2nc(C)c3cccc(C)c3n2)nc1C was read as SARS PLpro yeast 7%, NS1 function inh 5%, Cruzain Triton 5.7%, Cruzain inh noDet 2% and Marburg entry inh -4%.
